Screening results: PubChem BioAssay, several laboratories
LANA-H2B inh – blocks KSHV LANA binding to histone H2A/H2B. Q9QR71. cell-free LANA-H2A/H2B peptide, fluorescence polarization. inhibition, % (concentration not given with the values). 320,000 tested, 0.6% active; in the data active = inhibition mostly above about 10%, no sharp cut-off; inactive = mostly below about 6.7%;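 note: stock transfer was 7.5 nL into about 10 µL; 0% = median of vehicle wells and 100% = median of positive control wells; one replicate is shown; the record names a cut of 25% in any replicate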
HNF4A DNA FP – change in binding of human HNF4 alpha to DNA; HNF4a-FITC DNA binding, fluorescence polarization, 1 h; activity change, % at 10 µM; 360,000 tested, 0.3% active; AID 1224865; in the data active = activity change above about 30%, passing the limit was not always enough;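 note: controls were the assay level and a saturating level of protein; the project sought stronger binding though the title names inhibitors; some compounds called inactive have numbers as strong as hits; positive values seem to mean higher polarization but the record does not say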
Target sequence (P41235 whole entry, looked up): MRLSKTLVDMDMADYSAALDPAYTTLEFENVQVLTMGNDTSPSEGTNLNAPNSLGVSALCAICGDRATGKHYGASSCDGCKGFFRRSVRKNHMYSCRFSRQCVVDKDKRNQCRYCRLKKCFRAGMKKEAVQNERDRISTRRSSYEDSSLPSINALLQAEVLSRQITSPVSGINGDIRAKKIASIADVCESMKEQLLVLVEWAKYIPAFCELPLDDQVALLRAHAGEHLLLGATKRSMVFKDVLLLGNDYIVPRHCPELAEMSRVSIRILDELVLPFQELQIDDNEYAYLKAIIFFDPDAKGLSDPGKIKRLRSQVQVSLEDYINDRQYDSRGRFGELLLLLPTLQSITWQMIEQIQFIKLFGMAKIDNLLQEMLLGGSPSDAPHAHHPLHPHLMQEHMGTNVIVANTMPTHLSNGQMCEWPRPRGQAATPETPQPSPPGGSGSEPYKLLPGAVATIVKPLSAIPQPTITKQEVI
RanGTP-Imp inh – disruptors of Ran-importin-beta complex formation – biochemical, FRET, CFP-Ran, YFP-importin-beta, homogeneous, primary screen; AID 2216; inhibition, % (test concentration not listed); cell-free CFP-Ran/YFP-importin-beta FRET ratio; 300,000 tested, 1.1% active;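 active = most replicates above 15%; inconclusive = exactly half above 15%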;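 note: 0% = DMSO wells and 100% = Ran loaded with GDP instead of GTP; wells of about 40 µL received 100 nL stock; the first replicate is given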
Calb FLC – affects C. albicans growth with fluconazole; C. albicans CaCi-2 (fluconazole-resistant clinical isolate) + fluconazole, Alamar Blue growth, 48 h; growth inhibition, % (concentration not given with the values); 300,000 tested, 0.57% active; AID 1979;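 active = most replicates above 75%; inconclusive = exactly half above 75%; inactive = most below 75%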;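 note: all wells also contain fluconazole at 8 µg/ml as a sub-toxic cotreatment; 0% = median of DMSO wells and 100% = median of geldanamycin control wells; wells of about 8 µL received 7.5 nL stock; the first replicate is given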
Vif TR-FRET – inhibitors of Vif binding to APOBEC3G peptide, primary screen, biochemical, TR-FRET, GST-Vif 1-94, biotin-A3G peptide, dose response retest (AID 1117319) | one-dose inhibition, %; IC50 in µM for titrated hits | 260,000 tested, 0.57% active | TR-FRET GST-Vif / biotin-A3G peptide binding; higher % means a stronger effect; test concentration not given here; strong numbers were not always called active;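 active = above the screen mean plus three standard deviations and confirmed in dose response; inconclusive = results disagree or hit not tested in dose response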;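 note: Vif residues 1-94 fused to GST binding biotinylated APOBEC3G peptide 110-148; 0% = full assay without inhibitor and 100% = GST in place of GST-Vif; retest series ran down from 100 µM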
B2AR ag – agonists of human beta-2 adrenergic receptor inducing internalization | Am2.2-beta2AR cells, FAP receptor internalization, flow cytometry; reference of the scale not given here | 340,000 tested, 0.43% active | response, % (test concentration not listed);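 active = response above a set limit, near 3 SD of response in nonfluorescent compounds, cut at about 42% in these data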;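 note: stock transfer was 100 nL into about 11 µL; a reference agonist was the positive control; negative values mostly stem from fluorescent compounds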
ALR inh – human ALR oxidase inhibition via reduced H2O2; P55789; AID 485317; 290,000 tested, 3.8% active; inhibition, % (no concentration beside the values); purified ALR, DTT oxidation, H2O2 HRP-luminol luminescence;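 active = mean and each replicate at 75% or more; inconclusive = only one of the two met; inactive = neither met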;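 note: stock transfer was 7.5 nL into about 7.5 µL; 0% = neutral wells and 100% = wells with inactivated enzyme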
Target sequence (P55789 whole entry, looked up): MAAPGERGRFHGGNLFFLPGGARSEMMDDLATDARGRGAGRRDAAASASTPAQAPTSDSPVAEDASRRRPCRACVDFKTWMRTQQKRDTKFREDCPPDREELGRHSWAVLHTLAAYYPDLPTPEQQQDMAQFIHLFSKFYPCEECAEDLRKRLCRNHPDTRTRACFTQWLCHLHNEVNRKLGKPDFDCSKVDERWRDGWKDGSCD
Numbers without * were called inactive; ? = inconclusive; . = not tested or not shown; & = joins results of further samples.

Every second line gives: LANA-H2B inh	B2AR ag	Calb FLC	ALR inh	Vif TR-FRET	HNF4A DNA FP	RanGTP-Imp inh
Cc1cccc(N2CCN(C3=NC(=O)/C(=C\c4cn[nH]c4-c4ccccc4)S3)CC2)c1
 : 0.9	4	0	3	-5%	4.2	-0.3
COC(=O)c1ccc(CNC(=O)c2ccc3c(c2)OCCO3)cc1
 : -2.9	2	-10	.	.	-0.7	-2.7
O=C(CCc1nc2ccccc2c(=O)[nH]1)OCc1ccccc1F
 : 0.9	5	-2	-12	.	0.3	0.2
S=C(NCC1CCCO1)N1CCN(c2ccccc2)CC1 (stereo not given)
 : -0.9	-7	12	98*	-1%	-0.5	-0.7
CN(Cc1ccccc1)C(=O)c1ccc(NC(=O)Cc2cccc(NC(=O)C3CCN(C(=O)C4CC4)CC3)c2)cc1
 : 2.6	2	.	-1	.	0.5	.
O=[N+]([O-])c1cnccc1Nc1ccccc1
 : -2.1	-2	9	-6	5%	1.6	5.5
CCCOc1cccc(C2C(C(=O)c3ccc(C)o3)=C(O)C(=O)N2c2nc(C)c(C(C)=O)s2)c1 (stereo not given)
 : 3.7	-2	-9	97*	.	14	-31
CC(C)N1CCC(N2CCN(C3CCCCC3)CC2CCO)CC1 (stereo not given)
 : -2.8	-1	-1	-3	.	1.4	-7.0
Cc1nc2cc(NC(=O)NCc3ccco3)ccc2o1
 : 2.4	0	5	-11	2%	-0.7	-1.5
COc1cc(NC(=O)c2cccs2)cc(OC)c1
 : 2.2	-15	-3	-14	1%	2.4	3.4
CC1CCCC(C)N1C(=O)Cn1nnc(-c2ccc([N+](=O)[O-])cc2)n1 (stereo not given)
 : -0.9	-8	3	-54	.	0.3	-2.8
OC(CNCC1CCCO1)Cn1c2ccc(Br)cc2c2cc(Br)ccc21 (stereo not given)
 : -0.7	21	101*	.	2%	-1.9	3.3
Cc1cc(C)cc(NC(=O)CSc2nnnn2-c2cccnc2)c1
 : 2.7	-12	40	-4	.	1.9	-0.8
COc1ccc(C(=O)COC(=O)CCNS(=O)(=O)c2ccccc2)cc1Br
 : 2.8	0	10	1	.	3.8	-2.9
Cc1ccc(Oc2ccc(C(F)(F)F)cc2[N+](=O)[O-])c([N+](=O)[O-])n1
 : 2.3	-8	-1	-8	.	1.8	-2.1
COc1ccc(S(=O)(=O)CCC(=O)N2c3ccccc3CC2C)cc1 (stereo not given)
 : 1.8	-4	-17	-1	31%	-0.3	5.9
CCn1c2ccccc2c2cc(NC(=O)CCCN3C(=O)CCC3=O)ccc21
 : -3.3	14	8	-11	2%	2.2	0.1
COc1ccccc1N=c1scc(-c2ccc3c(c2)NC(=O)CO3)n1CC1CCCO1 (stereo not given)
 : 5.3	7	2	99*	10%	4.1	0.2
CN1CCN(c2ccc(NC(=O)C(C)(c3ccccc3)c3ccccc3)cc2)CC1
 : -1.3	21	-11	-38	1%	-2.2	?
CCCCNC(=O)c1cc2ccccc2s1
 : 2.6	-13	-9	-8	.	-2.1	-2.9
CC1(C)CC(=O)c2cc(OCC(=O)N3CCCCCC3)ccc2O1
 : -1.8	-5	10	-2	-2%	-2.4	3.8
O=C(O)/C=C\C(=O)Nc1ccccc1C#Cc1ccc(Br)cc1
 : -2.2	0	-7	98*	0%	-9.2	-1.6
COc1ccccc1-n1nnnc1SCC(=O)NC(=O)Cc1ccccc1
 : 1.6	2	.	.	.	-2.8	.
COc1ccc(C(=O)c2sc3nc(C)cc(-c4cccs4)c3c2N)cc1OC
 : -0.5	-83	-14	-27	-7%	36	-102
Cc1ccsc1C(=O)c1sccc1C
 : -0.8	0	-14	12	3%	25	-1.5
O=C(/C=C/c1ccc([N+](=O)[O-])cc1)N1CCN(S(=O)(=O)c2cccs2)CC1
 : 0.5	11	9	-11	.	0.4	-5.5
O=C(CCCN1C(=O)c2ccccc2C1=O)Nc1c2c(nc3c1CCC3)CCC2
 : .	-14	.	.	?	-5.2	.
O=C(CN1C(=O)c2ccc([N+](=O)[O-])cc2C1=O)NCC1CCCO1 (stereo not given)
 : .	1	1	.	-1%	-0.7	5.6
CCc1cc(=O)oc2cc(OCC(=O)N(CC)CC)c(Cl)cc12
 : -0.5	-19	4	-2	3%	-0.8	-3.9
O=C(CN1C(=O)C2C3C=CC(C3)C2C1=O)NC1CCCc2ccccc21 (stereo not given)
 : 2.7	3	-1	-6	4%	-0.6	0.3
Cc1nn(C)c(C)c1S(=O)(=O)N(CC(=O)Nc1ccccn1)c1ccc(C(C)C)cc1
 : .	-4	-4	.	-4%	1.9	2.3
Cc1nn(CC(=O)NC2(C)CCS(=O)(=O)C2)c(C)c1S(=O)(=O)N(C)C (stereo not given)
 : -0.3	-5	.	-6	.	-1.0	.
O=C(Nn1c(-c2ccc(F)cc2)nc2ccccc2c1=O)c1cccnc1
 : -0.8	-1	-12	-4	-4%	-3.0	1.3
COC(=O)c1c(NC(=O)Cn2nc(C(F)F)cc2C(F)F)sc(C)c1C
 : 4.7	-1	-1	-2	22%	-0.7	2.3
O=C(NC(=S)NCc1ccc(Cl)cc1)c1ccco1
 : -7.9	-7	.	.	1%	-5.1	.
COc1cc(CO)ccc1Oc1nnnn1-c1ccc(C(N)=O)cc1
 : 1.1	5	-3	3	8%	-1.9	-4.6
COc1ccc(C(=O)/C=C/c2ccccc2F)c(OC(=O)c2ccc([N+](=O)[O-])cc2)c1
 : 0.5	0	1	21	14%	-1.1	1.3
COc1c(C)cc(C(=O)C2CCCN(C(=O)c3cc4nc(C)cc(C)n4n3)C2)cc1C (stereo not given)
 : 4.8	4	-8	.	2%	1.4	2.7
C=CCN(c1ccccc1)S(=O)(=O)c1c(C)[nH]c(=O)[nH]c1=O
 : 5.8	-2	-17	-28	.	-3.5	3.3
C=CCc1ccccc1OCC(=O)NNC(=S)NCc1ccccc1
 : -1.1	-2	-2	1	.	1.6	2.9
O=C(NC1CCCc2ccccc21)c1cccnc1 (stereo not given)
 : 5.6	2	4	-22	-1%	1.3	6.2
Cc1oc2c(c1C(=O)Nc1ccc(C(=O)O)cc1)CCCC2
 : -2.2	-6	-8	2	28%	-1.1	0.0
C=CCn1c(SCC(=O)Nc2nnc(CC)s2)nnc1-c1ccco1
 : -2.9	2	2	4	-7%	1.6	6.2
Cc1ccc(OCc2n[nH]c(=S)n2-c2ccccc2)cc1
 : -13	2	?	65	2%	0.3	1.0
CCN(Cc1ccccc1)C(=O)c1cc2c(OC)c(OC)c(OC)cc2[nH]1
 : 1.6	5	5	-28	-11%	0.0	6.8
O=C(COC(=O)c1ccccc1O)Nc1cccc(S(=O)(=O)NC2=NCCCCC2)c1
 : 2.6	3	-5	-14	16%	-1.2	0.1
COc1cccc(N/C=C/C(=O)c2ccc(OC)c(OC)c2)c1
 : -3.3	8	-4	-4	.	1.4	-0.5
COc1ccccc1NC(=O)Cn1nnc(-c2ccccc2NC(=O)c2cnccn2)n1
 : -6.0	24	?	-23	.	1.6	?
Cc1ccc(S(=O)(=O)Nc2ccc3c4c(cccc24)CC3)c(C)c1
 : -4.0	2	-10	.	-4%	-1.1	1.2
CCOC(=O)NC(=O)c1cn(Nc2ccccc2C(F)(F)F)c(=O)[nH]c1=O
 : -0.7	-1	-4	9	.	-4.5	-3.2

Later entries
Every second line gives: LANA-H2B inh	B2AR ag	Calb FLC	ALR inh	Vif TR-FRET	HNF4A DNA FP	RanGTP-Imp inh
COc1ccc(CNS(=O)(=O)c2ccc(F)c(C(=O)Nc3ccccc3OC)c2)cc1
 : 1.5	1	-23	-1	.	2.7	-4.8
Cc1ccc2cc(C(c3nnnn3C(C)(C)C)N3CCCCCC3)c(=O)[nH]c2c1 (stereo not given)
 : 0.0	-2	3	-11	5%&3%	-0.5	-8.5
CCc1ccc([C@@H]2CC=C(C(=O)O)[C@H](c3ccc(F)cc3)N2S(=O)(=O)c2ccc(C)cc2)cc1
 : 2.2	-3	.	4	.	1.4	.
O=C(CSc1ncn[nH]1)Nc1nc(-c2ccccc2)cs1
 : -7.5	-2	1	-5	-3%	0.7	?
O=C(C(Cc1ccc(Cl)cc1)NS(=O)(=O)c1ccccc1)N1CC[C@@]2(O)CCCC[C@H]2C1 (stereo not given in full)
 : 7.0	2	1	-6	1%	-0.8	2.1
O=C(NCc1ccco1)c1cccn2c(=O)c3c4c(sc3nc12)CCCC4
 : -2.4	-10	0	?	10%	-9.3	-9.4
Clc1ccc(-c2c(C3=NCCCN3)nnn2-c2ccc(Cl)cc2)cc1
 : -0.3	-1	-26	-1	8%	2.5	2.7
Cc1ccc(C(C(=O)NCc2ccco2)N(C(=O)CNC(=O)c2cccs2)c2c(C)cccc2C)cc1 (stereo not given)
 : -4.4	-10	-3	-6	.	1.5	2.2
CCC(C)(C)NC(=O)CN(C(=O)c1ccc(N2CCCC2)nc1)c1ccc(F)cc1
 : -3.4	-16	10	0	.	-1.5	-0.6
COc1ccc(NC(=O)C2CC(c3cccc(Br)c3)=NO2)cc1OC (stereo not given)
 : -5.2	-8	10	-16	.	-1.7	2.6
COc1cccc2cc(C(=O)NCCc3c[nH]c4ccccc34)c(=O)oc12
 : 2.5	0	-1	2	-5%	4.5	1.0
COC(=O)[C@]1(C)N[C@H](CN(C)C(=O)Nc2ccccc2)[C@@H]2C(=O)N(Cc3ccccc3)C(=O)[C@@H]21
 : 1.0	-9	.	.	-4%	-1.2	.
Cc1nn(CCC#N)c(NC(=O)c2ccc(Cl)cc2Cl)c1P(=O)(Nc1ccc([N+](=O)[O-])cc1)N1CCOCC1 (stereo not given)
 : 1.8	-3	-29	-1	0%	-1.3	-1.2
CCOc1ccc(Oc2nc(N(CC)CC)nc(N3CCOCC3)n2)nn1
 : -1.0	0	6	-15	-9%	3.0	0.0
CCCN(CCC)c1nc(NC2CCN(C(=O)OCC)CC2)nc(OC)n1
 : -2.9	0	-1	-6	0%	-0.7	0.5
CN(C)S(=O)(=O)NCc1ccc2c(c1)OCO2
 : -1.6	-7	-6	-8	2%	-1.0	?
Cc1ccccc1C1c2[nH]c3ccccc3c2C[C@H]2C(=O)N(C3CCN(Cc4ccccc4)CC3)CC(=O)N12 (stereo not given in full)
 : -3.5	13	21	-11	.	4.1	1.9
O=c1[nH]c(C2CCN(S(=O)(=O)c3ccc(F)cc3)CC2)nc2c1nnn2Cc1ccc2c(c1)OCCO2
 : -3.4	6	24	-1	12%	-3.4	19*
